# VDR inhibitor – blocks the human vitamin D receptor; Potency, µM, for the others: max response, negative = inhibition, actives largely listed as inhibitors; 400,000 compounds, 0.93% hits; VDR-SRC2-3 peptide fluorescence polarization, 2 h; active = well fitted inhibition curve with a large enough effect; inconclusive = small, poorly fitted or top-dose-only effect, or another doubt; inactive = no such curve, though single readings can be large or run the other way; also: series mostly up to about 120 µM
# Target sequence (P11473 whole entry, looked up): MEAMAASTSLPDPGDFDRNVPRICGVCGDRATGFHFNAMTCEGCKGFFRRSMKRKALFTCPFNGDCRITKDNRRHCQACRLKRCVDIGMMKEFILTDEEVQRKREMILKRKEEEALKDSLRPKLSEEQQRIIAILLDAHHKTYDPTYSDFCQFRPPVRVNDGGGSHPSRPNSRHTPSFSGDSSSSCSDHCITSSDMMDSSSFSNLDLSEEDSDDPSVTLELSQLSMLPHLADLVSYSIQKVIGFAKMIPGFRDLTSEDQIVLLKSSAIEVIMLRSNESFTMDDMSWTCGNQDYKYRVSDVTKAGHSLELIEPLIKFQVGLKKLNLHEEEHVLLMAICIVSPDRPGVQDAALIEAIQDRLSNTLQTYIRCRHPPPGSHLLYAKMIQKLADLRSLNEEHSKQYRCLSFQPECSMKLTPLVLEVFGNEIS
#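 FP read-out; VDR + SRC2-3 coactivator peptide; 23 nl compound by pintool; 2 h RT incubation; reagents held at 4 deg C, protected from light.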
# The depositor's hits bear a star; ? = inconclusive; & = joins results of further samples. % is scaled to controls: 0 for no effect and ±100 for the full control effect; potency is read from the fitted curve at half-maximal effect. This is a subset; the hit share may differ from the screen's.
SMILES | VDR inhibitor
Cc1ccc(CNC(=O)c2cc(C)nn2-c2ccccc2)cc1 | 3.1%
C/C(=N/OC(=O)c1ccccc1)c1oc(C)nc1C | -1.5%
Cc1ccc(O)c(CNc2cccc3cccnc23)c1 | -10.8%
Cc1ccc2nc(SC(C)C(=O)N3CC(C)OC(C)C3)[nH]c2c1 (centres undefined) | -13.4%
CCc1ccc(S(=O)(=O)NCCc2cn3cccc(C)c3n2)s1 | 16.5%
Cc1cc(OC(C)C(=O)NC(Cc2c[nH]c3ccc(O)cc23)C(=O)O)c2c(C)c(C)c(=O)oc2c1 (centres undefined) | -14.0%
CS(=O)(=O)N1CCc2cc(C(=O)NCc3ccccc3)ccc21 | 10.9%
COc1ccc(-c2csc(Nc3ccc(S(N)(=O)=O)cc3)n2)cc1 | 5.9%
Cc1cc(C)nc(NC(=O)c2ccc([N+](=O)[O-])c(C)c2)n1 | -11.4%
Cc1ccc(CNC(=O)C2(C)Oc3ccccc3NC2=O)cc1 (centres undefined) | -4.6%
CCn1nnnc1-c1ccc(OC)c(S(=O)(=O)NCc2ccccc2)c1 | 8.9%
Cc1nc2cc(C(F)(F)F)ccc2n1CCNc1nc(-c2ccc([N+](=O)[O-])c(Cl)c2)cs1 | 3.8%
Cc1cc(S(=O)(=O)N2CCCC2)ccc1OCC(=O)N1CCCCC1 | -18.2%
CCC(CO)NC(=O)c1cccc(S(=O)(=O)N2c3ccccc3CC2C)c1 (centres undefined) | -0.9%
COc1ccc(Cn2c(CNC(=O)Cc3cccc([N+](=O)[O-])c3)nc3cccnc32)cc1 | 3.6%

# (listing goes on)
SMILES | VDR inhibitor
NC(=S)N/N=C/c1ccc(-c2ccccc2)o1 | -18.7%
Cc1cccc(OCC(=O)NCC(=O)N/N=C/c2ccccc2)c1 | -1.8%
CC(=O)N1CCc2cc(S(=O)(=O)NC(Cc3ccccc3)C(=O)Nc3ccc(Cl)cc3)ccc21 (centres undefined) | -18.4%
COc1cccc(CNC(=O)CCNS(=O)(=O)c2cccc3nonc23)c1 | 8.0%
COc1ccc(C(C#N)=C2C=CC(=NO)C(C)=C2Cl)cc1 | ?
CCCCCN1C(C(=O)c2ccccc2)=C(NC(C)=O)c2ccccc2S1(=O)=O | ?
O=c1ncn(-c2cccc(Cl)c2)c2ccccc12 | -16.1%
C[C@]12CCC(=O)C=C1CC[C@@H]1C2[C@@H](O)C[C@@]2(C)[C@H]1CC[C@]2(O)C(=O)CO (some centres undefined) | -15.3%
CC(C)c1ccc(N(CC(=O)O)S(=O)(=O)c2ccc3[nH]c(=O)c(=O)[nH]c3c2)cc1 | 7.3%
CCOC(=O)n1c(SCC(=O)N(CC)CC)nc2ccccc21 | 12.9%
CC1(c2ccc(Cl)cc2)NC(=O)N(CC(=O)NCCC2=CCCCC2)C1=O (centres undefined) | -2.9%
Fc1cc(Br)ccc1Nc1nc2ccccc2n2nnnc12 | -16.9%
COc1cc(NC(=O)NCC2CCN(Cc3ccc(C)cc3)CC2)cc(OC)c1OC | -15.6%&-12.1%
[O-][n+]1nc2ccccc2c2ccccc21 | 16.0%
CCCn1nc(C(=O)OCC(=O)Nc2ccc(C)cc2)c2ccccc2c1=O | -10.9%

# Later entries.
SMILES | VDR inhibitor
C/C(=N/NC(=O)c1ccc2c(c1)OCO2)c1cccc(NC(=O)C(C)(C)C)c1 | ?
Cc1ccc(-c2nn(-c3ccccc3)cc2C(=O)NCCCN2CCOCC2)cc1 | -1.5%
COc1ccc(CNC(=O)CCCCCn2c(=O)[nH]c3ccccc3c2=O)cc1 | 20.7%
COc1ccc(C(CNC(=O)c2cccc(NS(=O)(=O)c3ccc(C)c(F)c3)c2)N(C)C)cc1 (centres undefined) | -10.4%
O=C(CNC(=S)N(Cc1ccccc1)Cc1ccccc1F)NCCc1ccc(Cl)cc1 | -4.1%
CCc1ccc(NC(=O)Cn2c(=O)nc(-c3ccccc3F)c3cc(Cl)ccc32)cc1 | 4.2%
CN(C)[C@H]1C(=O)C(C(=O)NCN2CCCC2)=C(O)[C@]2(O)C(=O)C3=C(O)c4c(O)cccc4[C@@](C)(O)[C@H]3C[C@@H]12 | 31.6µM*
CCC(=O)N1c2ccc(S(=O)(=O)N3CCOCC3)cc2CC1C (centres undefined) | 6.9%
Cc1ccccc1-c1nc(CS(=O)CC(=O)NCc2ccccn2)c(C)o1 (centres undefined) | 3.6%
CCOC(=O)CSc1nc(C(C)C)nc2sc(C)c(C)c12 | -7.7%
CCC(=O)Nc1ccc(NC(=O)CSc2nnnn2-c2ccc3c(c2)OCCO3)cc1 | -0.5%
CC(C)(C)OC(=O)NCCCC[C@@H](C(=O)NCCCCCCCCCCC(=O)N1CCN(C(=O)OC(C)(C)C)CC1)n1cc(CCO)nn1 | ?
CC(=O)c1cccc(NC(=O)CCN2C(=O)C3C4CCC(C4)C3C2=O)c1 (centres undefined) | -4.7%
CC(C)c1ccc(NC(=O)CSc2nc(-c3ccccc3F)nc3nc[nH]c23)cc1 | -19.9%
COc1ccccc1Nc1nc(-c2sc(NC(=O)c3ccccc3)nc2C)cs1 | -0.3%

# Shown as a hit in VDR inhibitor, among the entries above:
SMILES | VDR inhibitor
CN(C)[C@H]1C(=O)C(C(=O)NCN2CCCC2)=C(O)[C@]2(O)C(=O)C3=C(O)c4c(O)cccc4[C@@](C)(O)[C@H]3C[C@@H]12 | 31.6µM*

# The list goes on.
SMILES | VDR inhibitor
Cn1c(SCc2cccc(Br)c2)nc2ccccc2c1=O | 12.6%
CCn1c(=O)sc2cc(NS(=O)(=O)c3ccc(F)c(C)c3)ccc21 | -0.5%
Clc1ccccc1Cn1nnc2c(NCC3CC3)ncnc21 | 2.6%
S=C(NCCCc1ccccc1)NC1CCCCC1 | 6.9%
COc1cc(OC)c(OC)cc1CNC(=O)CCN1C(=O)c2cccc([N+](=O)[O-])c2C1=O | -6.3%
O=[N+]([O-])c1ccccc1S(=O)(=O)Oc1ccc(C(=S)N2CCOCC2)cc1 | -1.3%
O=C(Nc1ncccc1O)c1ccc(Cl)c(S(=O)(=O)N2CCCCC2)c1 | -4.8%
COCCCNC(=O)C(=O)NC1CCCCC1C (centres undefined) | 11.1%
C#CCN1C(=O)C(O)(CC(=O)/C=C/C=C/c2ccccc2)c2ccccc21 (centres undefined) | -2.8%
Cc1ccc(-n2ncc3c(NC(C)c4ccccc4)ncnc32)cc1 (centres undefined) | 11.4%
CC1CN(S(=O)(=O)c2cccc(C(=O)OCC(=O)NCc3ccccc3)c2)CC(C)O1 (centres undefined) | 7.1%
O=P1(Nn2cnnc2)C=C(c2ccccc2)OC(c2ccccc2)=C1 | 12.9%
Cc1cccc(NCc2nc3ccccc3n2CCOc2ccccc2C)c1 | -3.4%
CCOC(=O)c1c(C)c(C(=O)NCCCN2CCCC2=O)c(C)n1CC | 8.2%
CCOc1ccc(NC(=O)c2sc3nc4n(c(=O)c3c2C)CCC4)cc1 | 6.0%&5.1%

# Quoted at random: 4 records from the list.
SMILES | VDR inhibitor
CCn1c(=O)sc2cc(NS(=O)(=O)c3ccc(F)c(C)c3)ccc21 | -0.5%
O=C(Nc1ncccc1O)c1ccc(Cl)c(S(=O)(=O)N2CCCCC2)c1 | -4.8%
Cc1cccc(NCc2nc3ccccc3n2CCOc2ccccc2C)c1 | -3.4%
CCOc1ccc(NC(=O)c2sc3nc4n(c(=O)c3c2C)CCC4)cc1 | 6.0%&5.1%

# (next part)
SMILES | VDR inhibitor
CS(=O)(=O)c1ncc(Cl)c(C(=O)N2CCN(c3cccc(Cl)c3)CC2)n1 | ?
CC(C)(C)S(=O)(=O)/C(C#N)=C/c1sccc1C1OCCO1 | ?
FCCCOc1ccc(-c2nccc(-c3ccccn3)n2)cc1 | 1.0%
O=c1cc(-c2ccccc2)c2ccc3c(c2o1)CN(Cc1cccc(Cl)c1)CO3 | -5.8%
CC(C)Oc1ccc(S(=O)(=O)N2CCCCC2)cc1NC(=O)C1CSC2(C)CCC(=O)N12 (centres undefined) | -20.2%
Nc1nnc(SCc2ccc(Cl)cc2)s1 | 0.9%
COc1cccc(-c2cc(C(=O)Nc3cnn(Cc4ccc(F)cc4)c3)no2)c1 | 14.4%
COc1ccc(C(=O)CNc2ccc(C)cc2C)cc1 | -8.6%
CC(C)(CO)CNC1CCCN(C2Cc3ccccc3C2)C1 (centres undefined) | -3.4%
COc1cc(C(=O)Oc2ccc3c(OC)c4ccoc4nc3c2OC)cc(OC)c1OC | -0.1%
CCC1CCCCN1Cc1nc2c(c(=O)n(C)c(=O)n2C)n1Cc1ccccc1 (centres undefined) | -16.4%
O=C(c1cccc(S(=O)(=O)N2CCc3ccccc32)c1)N1CCCC(C(F)(F)F)C1 (centres undefined) | 3.5%
Cc1ccc(S(=O)(=O)Oc2ccc(/C=C(/NC(=O)c3ccccc3)C(=O)O)cc2)cc1 | 10.2%
CCC(Sc1nccn1C)C(=O)Nc1ccc(Cl)cn1 (centres undefined) | -6.8%
Nc1cccc2c1C(=O)N(C(=O)c1ccco1)C2=O | -0.6%

# (further entries)
SMILES | VDR inhibitor
COc1ccccc1CN(C)c1nnnn1-c1ccccc1 | 7.4%
O=C(Nc1cccnc1)c1ccc(COc2ccccc2Cl)o1 | 3.9%
O=C(NC1CCCC1)C(c1ccncc1)N(CC1CCCO1)C(=O)Cn1nnc(-c2cccs2)n1 (centres undefined) | 0.1%
CCNc1nc(NCC)n2c(SCc3ccc(F)cc3)nnc2n1 | -6.8%
CCOC(=O)C(=O)/C(=C\N(C)C)c1onc(-c2c(Cl)cccc2Cl)c1C(=O)OC | 7.8%
O=C(NC1CCN(c2ncccn2)CC1)c1cccc(F)c1 | -5.7%
O=C(CSc1nnc(SCc2ccc(Cl)cc2)s1)N/N=C/c1ccc(Cl)cc1Cl | 5.2%
CCC(C)[C@H](NC(=O)N1CCC(C)CC1)C(=O)O (some centres undefined) | 4.3%
CCC(=O)Nc1cc(C)c(NC(=O)C23CC4CC(CC(C4)C2)C3)cn1 | -11.8%
Cc1ccc2nc(COc3ccccc3NC(=O)Nc3ccc(F)c(Cl)c3)cc(=O)n2c1 | 14.5%
COC(=O)/C(=C/c1c[nH]c2ccccc12)[N+](=O)[O-] | -7.5%
CN1CCC(NC(=O)c2cccc(Oc3ccccc3)c2)CC1 | -4.2%
O=C(O)c1cc(N2C(=O)C3CC=CCC3C2=O)ccc1NCc1cccnc1 (centres undefined) | 12.7%
O=C1C=C(c2ccc(F)nc2)CCC1 | 3.8%
Cc1ccc(SCC(=O)c2c(C)nc3cc(C)ccn23)cc1 | -6.6%

# Additional results follow.
SMILES | VDR inhibitor
COc1ccc(C2/C=C\[C@H](O[Si](C)(C)C(C)(C)C)[C@H](C(C)C)CC(=O)N2Cc2ccccc2)cc1 (some centres undefined) | -14.1%
CCOc1[nH]c(/N=C/c2ccccc2)c(C#N)c1C#N | 9.2%
CCOc1ccc(NC(=O)CCC(=O)Nc2nnc(CC)s2)cc1 | 0.0%
Cc1cc(=O)[nH]c2nnc(SCc3ccc(F)cc3)n12 | 25.7%
Cc1ccc(CSc2nnc(-c3cccc(S(=O)(=O)N4CCOCC4)c3)n2CC(C)C)cc1 | -23.8%
COc1cc(C2N=C(c3ccccc3)NO2)cc(Br)c1O (centres undefined) | -7.2%
NC(=O)CSc1c[nH]c2ccccc12 | 10.5%
CC(C)c1ccc(NC(=O)CSC2=Nc3ccccc3C3=NC(CC(=O)NCc4cccs4)C(=O)N23)cc1 (centres undefined) | 2.4%
CC(=O)N1CCc2c(sc3c2c(=O)n(Cc2ccccc2)c(=O)n3Cc2ccc(C)cc2)C1 | -7.7%
Cc1ccc(C)c(C(=O)CCC(=O)Nc2ccc(N3CCN(C)CC3)cc2C)c1 | -0.6%
Cc1[nH]c2ccccc2c1NC(=O)CN1CCN(C(=O)c2ccco2)CC1 | 1.5%
CCn1ncc(CN2CCN(Cc3cccc(OC)c3)C(CCO)C2)c1C (centres undefined) | -0.6%
COCCCNC(=O)CN(CCc1ccccc1)S(=O)(=O)c1ccc(C)cc1 | -7.9%
Cc1cc(C)cc(NC(=O)CSc2nc(=O)n(Cc3ccccn3)c3c2CCC3)c1 | 11.7%
CSCC[C@@H](C(=O)Nc1ccc2c(c1)OCCO2)N1Cc2ccccc2C1=O | -9.3%

# (listing goes on)
SMILES | VDR inhibitor
O=C(Cn1cnc2sc3c(c2c1=O)CCCC3)NCC(=O)Nc1ccc(F)cc1F | -15.3%
COc1ccc(-c2cc(CNC(C)=O)on2)cc1 | 13.8%
COc1ccc2nc(/N=C\N(C)C)sc2c1 | 0.7%
COc1ccc(CCN(C)C(=O)Cc2ccc(-c3ccccc3)cc2)cc1OC | -11.8%
CCOc1ccc(C(=O)C(CN2CCOCC2)c2ccccc2)cc1 (centres undefined) | ?
COc1cccc(CC2(CO)CCCN(Cc3ccc(-c4ccco4)cc3)C2)c1 (centres undefined) | ?
CN(C)S(=O)(=O)c1ccc(C(=O)Nc2cc3c(cc2C(=O)O)OCCCO3)cc1 | -17.3%
CCC1CCCCN1C(=O)CSc1nnc(N)s1 (centres undefined) | 24.5%
COC(=O)C(C(=O)OC)C(C[N+](=O)[O-])c1ccc(OC)cc1 (centres undefined) | -5.9%
COC(=O)[C@@H]1C[C@@]2(O)[C@H](O)[C@H](O)[C@H](O)C[C@H]2N1Cc1ccc(C(F)(F)F)cc1 | -4.5%
CCOc1ccc(/C=N/NC(=O)c2ccccc2O)cc1CN1CC2CC(C1)c1cccc(=O)n1C2 (centres undefined) | 7.9%
Cc1ccc2oc(=O)c3cnn(CC(=O)N4CCN(c5ccccn5)CC4)c3c2c1 | -7.8%
c1ccc(COCCCc2cnc[nH]2)cc1 | -0.6%
COC(=O)c1cccc(NC(=S)NCCC2=CCCCC2)c1 | 5.8%
CCOc1ccc(/C(O)=C2/C(=O)C(=O)N(Cc3cccnc3)C2c2ccc(N(C)C)cc2)c(C)c1 (centres undefined) | 1.3%
CN(C)/C=C/C=C1C(=O)CCCC1=O | -6.0%
Cc1oc2ccc(O)c(CN3CCCC(C)C3)c2c1C(=O)Nc1ccccc1 (centres undefined) | 7.1%
O=C(O)CCC/C=C\CC1C2CCC(O2)C1CNNC(=O)Nc1ccccc1 (centres undefined) | -5.7%&-0.3%

# Screening results as filed in PubChem.
